TRPML1 blocker: inhibitors of human TRPML1 channel; activity change, negative = inhibition, % (concentration not given with the values); Q9GZU1; 0.02% of 390,000 active; TRPML1-inducible cells, Ca2+ dye fluorescence, FDSS; hits give low values; inhibition of EC80 agonist-evoked calcium signal; AID 624415; in the data active means activity change below about -50%; inconclusive means about -30% to -50%; inactive means above about -30%;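 note: stimulus is agonist 54-4 at its EC80 concentration; % is set by controls: 0 for no effect and ±100 for the full control effect; compound concentration not given in the record; the text of the record puts the active cut at -80%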
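Tet-induced TRPML1-DL cells loaded with Ca8 no-wash calcium dye were read kinetically on FDSS. Compound addition was followed by EC80 agonist 54-4 (4 uM final); inhibition was read over 110 s.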
TRPV1 potentiator: potentiators of human vanilloid receptor 1 (TRPV1); 0.02% of 320,000 active; potentiation, % at 8.33 µM; TRPV1-expressing cells, Fluo-8 calcium influx, capsaicin EC20 potentiation; host cell line not named in the record; control for the full effect not named in the record; active means potentiation above 80%; inconclusive means 30% to 80%; inactive means below 30%; note: 0% is about no effect
Target sequence (Q8NER1 whole entry, looked up): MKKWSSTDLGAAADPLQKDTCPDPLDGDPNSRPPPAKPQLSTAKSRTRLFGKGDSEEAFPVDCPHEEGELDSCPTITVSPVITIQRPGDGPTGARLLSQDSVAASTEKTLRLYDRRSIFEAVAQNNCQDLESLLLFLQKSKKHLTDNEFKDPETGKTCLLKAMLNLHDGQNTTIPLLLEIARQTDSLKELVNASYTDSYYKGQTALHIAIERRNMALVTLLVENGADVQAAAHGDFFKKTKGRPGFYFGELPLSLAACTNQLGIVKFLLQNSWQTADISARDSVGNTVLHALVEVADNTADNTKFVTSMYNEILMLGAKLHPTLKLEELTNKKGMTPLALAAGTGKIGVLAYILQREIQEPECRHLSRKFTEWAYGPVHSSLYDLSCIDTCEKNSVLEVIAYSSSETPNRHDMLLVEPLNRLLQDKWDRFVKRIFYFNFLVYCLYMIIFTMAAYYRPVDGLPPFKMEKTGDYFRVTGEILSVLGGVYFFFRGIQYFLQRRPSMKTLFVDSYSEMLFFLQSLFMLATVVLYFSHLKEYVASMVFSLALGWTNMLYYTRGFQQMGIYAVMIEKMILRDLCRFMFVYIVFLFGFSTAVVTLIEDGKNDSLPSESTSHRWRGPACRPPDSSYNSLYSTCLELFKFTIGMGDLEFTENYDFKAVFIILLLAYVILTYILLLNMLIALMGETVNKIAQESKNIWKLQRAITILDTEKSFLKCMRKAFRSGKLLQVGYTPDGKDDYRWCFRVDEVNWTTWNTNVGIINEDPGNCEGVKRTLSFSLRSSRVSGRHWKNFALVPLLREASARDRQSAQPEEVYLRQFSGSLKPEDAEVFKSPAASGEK
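TRPV1-expressing cells were cultured overnight at 35.5C and loaded with Fluo-8 calcium dye for 40 to 90 min at room temperature. After a 10 s baseline, compound was added and calcium influx was read kinetically for 3 min (ex 480/em 520 nm).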
gsp agonist: gsp mutant agonism | gsp mutant cells, cAMP HTRF, 30 min; control for the full effect not named in the record | Potency, µM (series often up to 76.9 µM), for the others: at the highest dose activation (cAMP increase), usual class: activators | 0.13% of 340,000 active | AID 624287; active = well fitted activation curve with a large enough effect; inconclusive = small, poorly fitted or top-dose-only effect, or another doubt; inactive = no such curve, though single readings can be large or run the other way; cell line not stated here;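 note: phosphodiesterase inhibitor Ro 20-1724 added with compounds to block cAMP breakdown; potency is the fitted concentration of half-maximal effect; nearly all actives have a fitted effect of over 60% in size; about a fifth of the inactives were tested at one dose only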
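Cells stably selected in G418 were plated at 2000/well, grown 16-24 hr, then given compounds in DMSO with the PDE inhibitor […] (300 uM solution added) for 30 min at 37C; cAMP was read by HTRF.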
gsp antagonist: antagonists of gsp mutant (McCune-Albright syndrome) | gsp-mutant cells, cAMP HTRF, 30 min; control for the full effect not named in the record | Potency, µM (top dose mostly 76.9 µM), without a hit: top-dose activity change, negative = inhibition, most hits filed as inhibitors | 0.4% of 340,000 active; active = falling curve of any shape with a large fitted effect; inconclusive = falling curve, mostly with a smaller effect; inactive = flat or rising curve; cell line not stated here;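 note: intracellular cAMP measured with PDE inhibitor Ro 20-1724 present during compound exposure; potency is the fitted concentration of half-maximal effect; % is set by controls: 0 for no effect and ±100 for the full control effect; nearly all actives have a fitted effect of over 65% in size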
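Cells in G418 medium, seeded 16-24 h, 37C; buffer exchange to DPBS + 1 mM CaCl2, 0.5 mM MgCl2, 0.05% BSA; cpds in DMSO + […] (300 uM stock), 30 min 37C; HTRF cAMP detection.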
Sfp PPTase inh: inhibitors of Bacillus subtilis Sfp phosphopantetheinyl transferase; Q9F4F7; AID 1490; 3.5% of 310,000 active; Potency, µM, for the others: max response, negative = inhibition, usual class: inhibitors; Biochemical Sfp PPTase activity, qHTS; active = well fitted inhibition curve with a large enough effect; inconclusive = small, poorly fitted or top-dose-only effect, or another doubt; inactive = no such curve, though single readings can be large or run the other way;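 note: the enzyme is Sfp with the accession as filed and its product quenches rhodamine fluorescence; potency is the fitted concentration of half-maximal effect; 0% = enzyme reaction without inhibitor and -100% = no enzyme wells; top concentration of the series not given in the record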
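Fluorescence-quenching assay: 15 nM Sfp-PPTase preincubated 15 min at room temperature with compound, then 5 uM rhodamine-CoA and 12.5 uM BHQ-2-labelled YbbR peptide added. Fluorescence (ex 525/em 598 nm) read at start and after 30 min; difference gives rate.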
Menin MLL FP FL: displaces fluorescein MLL peptide from human menin | Fluorescence polarization, fluorescein-MLL peptide displacement from menin | 290,000 tested, under 10 active | FP activity change, % at 61.4 µM | AID 1766; inconclusive = falling polarisation curve, or a change in total fluorescence; inactive = total fluorescence flat and polarisation flat or rising; no compound was filed as active; the % refers to the polarisation; negative = inhibition;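 note: % of control where 0% means no effect; inhibitors lower the polarisation; unlabelled MLL peptide was the positive control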
ClpP mod: qHTS Assay for Activators of ClpP; ATP-dependent Clp protease proteolytic subunit (Bacillus subtilis (strain 168)), P80244; purified B. subtilis ClpP, FRET peptide cleavage, 20 min; Potency, µM (series often up to 57.5 µM), without a hit: at the top dose activity change, negative = active; 1.9% of 340,000 active; AID 651965, 2013; active = well fitted falling curve with a large enough effect; inconclusive = small, poorly fitted or top-dose-only effect; inactive = no such curve, though single readings can be large or run the other way; note: potency is the fitted concentration of half-maximal effect; the source files actives as falling curves though it sought activators and does not explain the sign; nearly all actives have a fitted effect of over 65% in size; many hits overshoot -100%
Target sequence (P80244 whole entry, looked up): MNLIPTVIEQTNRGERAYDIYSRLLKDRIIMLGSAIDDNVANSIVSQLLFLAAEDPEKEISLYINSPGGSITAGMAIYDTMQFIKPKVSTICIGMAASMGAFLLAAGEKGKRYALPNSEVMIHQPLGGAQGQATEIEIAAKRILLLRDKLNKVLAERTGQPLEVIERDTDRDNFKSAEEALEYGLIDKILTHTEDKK
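Buffer: 100 mM Tris/HCl pH8, 100 mM KCl, 0.05% low protease BSA, 2.5% glycerol, 0.01% Tween-20. ClpP 10 microg/mL final; 20 min RT; delta FRET normalized to ADEP and DMSO controls.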
Active calls of the source: *; ? = inconclusive; . = not tested or not shown; & = joins results of further samples; [ ] = dose if it differs, or a comment.

SMILES	TRPML1 blocker	TRPV1 potentiator	gsp agonist	gsp antagonist	Sfp PPTase inh	Menin MLL FP FL	ClpP mod
COCCN(C(=O)CCC(=O)Nc1nccs1)C(C(=O)NC(C)(C)C)c1ccc(C)cc1 (stereo not given)	20	1	11%[15.4 µM]	-1%	15%	.	-0.3%
O=C(Cn1cnc2ccccc2c1=O)NNC(=O)c1cccc([N+](=O)[O-])c1	-8	-3	?	11%	.	.	-2.4%
O=C(COC(=O)c1cccnc1)Nc1cccc2ccccc12	11	-1	10%[15.4 µM]	-4%	15%	3.9	.
CC(=O)Nc1ccc(NC(=O)CN(C)CC(=O)Nc2ccccc2Br)cc1	11	4	-13%[15.4 µM]	9%	-4%	-5.3	.
COc1ccc(NS(=O)(=O)c2cc3c(cc2C)N(C)CCO3)c(OC)c1	2	-9	-3%	1%	-8%	-4.3	0.0%
CC(C)N(CCCNC(=O)Cn1c(=O)c2cccn2c2ccccc21)Cc1ccccc1	-13	?	29%	?	4%	.	-8.4%
O=S(=O)(/N=C(/Nc1ccccn1)c1ccc(Cl)cc1)c1ccc(Cl)cc1	-5	-35	1%	-4%	6%	1.8	-1.1%
COC(=O)c1ccc2cc(OC)c(OC)cc2c1	-4	.	16%	.	.	.	3.9%
c1ccc(-c2nnc3nc(N4CCCCC4)nc(N4CCCCC4)n23)cc1	4	.	-2%	0%	.	.	-6.7%
CCCCN(CCCC)CCNC(=O)Cc1nc2c(c(=O)[nH]c(=O)n2C)n1C	.	5	.	.	14%	10	.
CCOC(=O)c1c(NC(=O)c2cccnc2)sc(C)c1C	-12	-2	3%	1%	-11%	5.3	-4.8%
O=C(CCN1CCN(Cc2ccccc2)CC1)NNC(=O)Nc1cccc(Cl)c1	-9	-21	7%	6%	-10%	.	-2.4%
Cc1ccc(NC(=S)N2CCCC(c3nc4ccc(C)cc4[nH]3)C2)c(C)c1 (stereo not given)	15	-3	13%	-4%	-8%	12	0.3%
O=C(CNC(=O)c1ccc(Oc2ccccc2)cc1)OCc1ccc(Br)cc1	-11	2	-5%	-5%	9%	1.2	-1.9%
CCn1c2ccccc2c2nnc(SCC(=O)Nc3cc(C)on3)nc21	-2	-1	?	0%	-5%	5.0	-4.2%
O=C(CCC1CCN(C(=O)Cc2c(F)cccc2F)CC1)NC1CC1	-5	4	-43%	7%	-2%	.	-1.3%
COc1cc(OC)cc(C(=O)NCCNC(=O)c2ccco2)c1	2	13	-26%	-5%	-3%	-11	-15%
COc1cc(OC)cc(C(=O)N[C@H](C(=O)Nc2ccc(S(=O)(=O)N(C)C)cc2)C(C)C)c1	12	-7	-2%[15.4 µM]	-15%	-6%	4.7	.
CCc1c(C)[nH]c2ccc(C)cc2c1=O	7	3	-2%	5%	7%	4.4	-13%
COc1cc(NC(=O)Cn2cnc(S(=O)(=O)N3CCOCC3)c2)cc(OC)c1OC	-6	7	-1%	17%	15%	.	0.3%
COc1cc(/C=N/N2CCN(C3c4ccccc4-c4ccccc43)CC2)cc(OC)c1OC	-4	10	7%	-23%	?	2.3	-14%
O=Nc1c2ccc[nH]c-2c2ccc([N+](=O)[O-])cc12	-12	4	7%	10%	9%	0.8	.
Cc1ccc(CNC(=O)CN(c2ccc(C)cc2)S(=O)(=O)c2c(C)nn(C)c2C)cc1	3&13	-2	0%	8%	6%	.	0.9%&-0.7%
CC(OC(=O)C1=COCCO1)C(=O)Nc1ncc(Cl)cc1Cl (stereo not given)	6	1	-20%[15.4 µM]	-6%	.	.	.
CCOc1ccc(C(=O)CCNC(Cc2cnc[nH]2)C(=O)O)cc1 (stereo not given)	9	-2	-1%	2%	?	3.6	-0.5%
Other entries:
SMILES	TRPML1 blocker	TRPV1 potentiator	gsp agonist	gsp antagonist	Sfp PPTase inh	Menin MLL FP FL	ClpP mod
COc1ccccc1N(C)S(=O)(=O)c1ccc(C(=O)N2CCC2)cc1	-19	5	-39%[inhibitor]	1%	.	.	-29%
CCO[C@H]1OC(C(=O)N2CCCCCCC2)=C[C@@H](c2ccc(C(F)(F)F)cc2)[C@@H]1CCCO	-2	-20	.	-8%	15%	-0.4	-0.6%
Cc1sc(NC(=O)C2=COCCO2)nc1-c1ccc(F)cc1	-15	-11	1%	-4%	.	.	-16%
COC(=O)c1c(NC(=S)NN2CCOCC2)sc2c1CCCC2	-2	-2	12%	?	6%	-0.4	.
COc1ccc(NC(=O)c2ccccc2NC(=O)CN2CCCCCC2)cc1	2	-17	-32%[inhibitor]	-5%	.	.	1.6%
CCc1ccc(-c2csc(NC(=O)Oc3ccccc3)n2)cc1	-3	-3	3%[15.4 µM]	1%	15%	-4.3	0.7%
CCC(C(=O)Nc1nc(C)c(C(=O)OC)s1)c1ccccc1 (stereo not given)	7	-3	-4%	0%	-14%	0.7	.
Cc1cc(C(F)(F)F)nn1Cc1n[nH]c(=S)n1-c1ccc(Cl)cc1	12	7	-36%[inhibitor]	-13%	7%	-1.6	-1.0%
C=C1C(C(=O)Nc2cccc(OC)c2)C1C(=O)Nc1cccc(OC)c1 (stereo not given)	7	2	27%[15.4 µM]	0%	16%	-0.9	.
CCCCc1nc2cc(C(=O)N3CCCCC3COC)ccc2o1 (stereo not given)	-5	-14	?	11%	6%	-3.4	-1.2%
Cc1cccc(CSc2nc3nc(C)cc(C)n3n2)c1	.	?	29%	7%	0%	3.2	-3.7%
CC1=CC(c2ccccc2)n2nc(N)nc2N1 (stereo not given)	-3	.	13%	-6%	.	.	3.9%
CC(C(=O)O)c1ccc(N2Cc3ccccc3C2=O)cc1 (stereo not given)	-4	4	.	-23%	21%&19%	-0.3&1.5	-7.0%
CCOc1ccc(CNC(=S)Nc2ccccc2)cc1Cl	17	-6	-31%[inhibitor]	-21%	15%	-1.0	.
CN(C(=O)COC(=O)/C=C/c1cn(-c2ccccc2)nc1-c1ccc2c(c1)OCCO2)C1CCS(=O)(=O)C1 (stereo not given)	-10	7	-8%[15.4 µM]	-12%	10%	-1.9	.
C=CCNC(=O)C1CC(=O)N(c2ccc(OCC(=O)Nc3ccc(Cl)cc3)cc2)C1 (stereo not given)	8	2	-2%[15.4 µM]	13%	8%	0.9	0.9%
COc1ccc(/C=C/C2=CC(C)(C)NC(=S)N2)cc1	-2	9	6%[15.4 µM]	-21%	6%	-0.1	-0.1%
Cc1cc(C(=O)N2CCN(c3ncccc3C#N)CC2)no1	33	-5	0%[15.4 µM]	6%	9%	2.6	-1.8%
COc1ccc(-n2nnnc2SCC(=O)c2ccc3c(c2)OCCO3)cc1	-11	-28	24%	14%	-8%	7.3	0.8%
C=CCNCC#CCOc1ccc(OC)cc1	-14	5	-10%	7%	-19%	-1.4	-4.4%
COc1cc2c(cc1OC)C(C)N(C(=O)c1sccc1C)CC2 (stereo not given)	11	-6	?	9%	19%	.	1.4%
COc1ccc(CN(C)C(=O)/C=C/c2ccc(S(=O)(=O)N3CCOCC3)cc2)cc1F	13	2	-10%	-12%	.	.	-11%
COc1ccc(-n2cc(-c3ccccc3)c3c(NCCOCCO)ncnc32)cc1	12	11	0%	-22%	-11%	-0.5	-15%
COc1ccc(/C=N/Nc2ccccc2C(=O)O)cc1	24	19	0%[15.4 µM]	-25%	12%	3.7	-1.8%
O=C(O)CC(Cc1ccc(Cl)cc1)C(=O)Nc1ccc([N+](=O)[O-])cc1 (stereo not given)	8	19	?	11%	21%	0.2	-0.1%
Cc1cccc(-n2c(=O)c3c(n4cnnc24)-c2ccccc2CC32CCCCC2)c1	-9	-7	28%	-3%[15.4 µM]	-12%	2.9	0.6%
CC(C)NC(=S)NN=C1c2ccccc2-c2ccccc21	26	5	10%[15.4 µM]	-6%	21%	3.3	.

Full records as entered above:
`O=C(O)CC(Cc1ccc(Cl)cc1)C(=O)Nc1ccc([N+](=O)[O-])cc1` (stereo not given) is entered as TRPML1 blocker = 8; TRPV1 potentiator = 19; gsp agonist = ?; gsp antagonist = 11%; Sfp PPTase inh = 21%; Menin MLL FP FL = 0.2; ClpP mod = -0.1%
`CCO[C@H]1OC(C(=O)N2CCCCCCC2)=C[C@@H](c2ccc(C(F)(F)F)cc2)[C@@H]1CCCO` is entered as TRPML1 blocker = -2; TRPV1 potentiator = -20; gsp agonist = .; gsp antagonist = -8%; Sfp PPTase inh = 15%; Menin MLL FP FL = -0.4; ClpP mod = -0.6%

In another format: results already given
compound | TRPML1 blocker | TRPV1 potentiator | gsp agonist | gsp antagonist | Sfp PPTase inh | Menin MLL FP FL | ClpP mod
CCCCc1nc2cc(C(=O)N3CCCCC3COC)ccc2o1 (stereo not given) | -5 | -14 | ? | 11% | 6% | -3.4 | -1.2%
Cc1cccc(CSc2nc3nc(C)cc(C)n3n2)c1 | . | ? | 29% | 7% | 0% | 3.2 | -3.7%
CC1=CC(c2ccccc2)n2nc(N)nc2N1 (stereo not given) | -3 | . | 13% | -6% | . | . | 3.9%
CC(C(=O)O)c1ccc(N2Cc3ccccc3C2=O)cc1 (stereo not given) | -4 | 4 | . | -23% | 21%&19% | -0.3&1.5 | -7.0%
CCOc1ccc(CNC(=S)Nc2ccccc2)cc1Cl | 17 | -6 | -31%[inhibitor] | -21% | 15% | -1.0 | .
CN(C(=O)COC(=O)/C=C/c1cn(-c2ccccc2)nc1-c1ccc2c(c1)OCCO2)C1CCS(=O)(=O)C1 (stereo not given) | -10 | 7 | -8%[15.4 µM] | -12% | 10% | -1.9 | .
C=CCNC(=O)C1CC(=O)N(c2ccc(OCC(=O)Nc3ccc(Cl)cc3)cc2)C1 (stereo not given) | 8 | 2 | -2%[15.4 µM] | 13% | 8% | 0.9 | 0.9%

Assay outcomes (PubChem)
